Source: PubChem (several laboratories)
Yeast UUG start: modulators of yeast start codon fidelity, primary screen, whole organism, S. cerevisiae, single point, plate reader; S. cerevisiae UUG-firefly luciferase reporter, luminescence/redox ratio; activity score, % at 18.7 µM; hit rate 0.13% among 350,000;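 active = replicate mean at a twofold rise or more, about +100% in these data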;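 note: firefly luciferase made from a UUG start codon reports start codon fidelity; reporter light over untreated wells divided by growth signal over untreated wells; some hits fall short of that in this replicate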
MT1-MMP act inh: blockers of MT1-MMP proenzyme processing, primary screen, HT1080 RFP-PRO-GFP cells, GFP/RFP fluorescence; Matrix metalloproteinase-14 (Homo sapiens), P50281; GFP/RFP ratio fluorescence, overnight; percent of plate control window, DMSO zero; GFP/RFP ratio change, % at 20 µM; hit rate 0.061% among 360,000; AID 651647, 2012;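 active = GFP/RFP ratio change of at least 30% with cell ATP level not reduced by more than half and red fluorescence within 50% of control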; note: strong numbers were not always called active
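Test system: HT1080 RFP-PRO-GFP cells; Benchmarks: DMSO and RFP-L50D-GFP cell wells; Timing: cells overnight before dosing, compound overnight, 37 °C, 5% CO2; Compound: one 20 µM compound dose with 1% DMSO; Read-out: GFP/RFP fluorescence ratio.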
CSC inhib: cancer stem cell viability inhibitors, primary screen, luminescence | cancer stem cell-like cells viability | inhibition, % at 7.5 µM | hit rate 1.1% among 300,000 | AID 2717, 2010;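 active = mean at 75% or more and at least half the replicates too; tested in HMLE shEcad cells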;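 note: 0% = median of negative and 100% = median of positive control wells; the first replicate is given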
eIF4H FP inh: human eIF4H binding inhibitors, primary screen, translation initiation inhibitor project, biochemical, uHTS, fluorescence polarization. Eukaryotic translation initiation factor 4H (Homo sapiens), Q15056. eIF4H fluorescence polarization binding assay. inhibition, % at 35 µM. hit rate 0.94% among 290,000. AID 2012, 2009;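 active = 50% or more with normal probe brightness, or confirmed in later tests; about a fifth of its hits are not listed in these tables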;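 note: calls also rest on retests at 20 µM and on dose response follow-up; 0% = protein and probe with vehicle and 100% = probe without protein; strong numbers were not always called active; many hits fall short of the cut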
HIV Env fusion: inhibitors of HIV-1 Env-driven cell-cell fusion, primary screen, HeLa-JRFL effector, CEM21 target cells, luciferase. inhibition, % at 12.3 µM. hit rate 1.1% among 360,000;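 active = mean replicate inhibition score of at least 50 and every replicate individually at or above 50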;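 note: 0% = plate neutral controls and 100% = maraviroc near 300 nM; one replicate is shown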
Rce1 inhib: yeast Rce1p protease inhibitors, primary screen, biochemical, fluorescence, cell-free homogeneous | CAAX prenyl protease 2 (Saccharomyces cerevisiae (strain ATCC 204508 / S288c)), Q03530 | yeast membranes, quenched prenylated peptide cleavage fluorescence | calls only | hit rate 0.27% among 290,000;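 active = fall in fluorescence gain of 50% or more versus controls, with final raw signal at or below 3038400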;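 note: plate controls were neutral control wells for no effect and wells lacking membranes for full effect; tested at 10 µM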
Target sequence (Q03530 whole entry, looked up): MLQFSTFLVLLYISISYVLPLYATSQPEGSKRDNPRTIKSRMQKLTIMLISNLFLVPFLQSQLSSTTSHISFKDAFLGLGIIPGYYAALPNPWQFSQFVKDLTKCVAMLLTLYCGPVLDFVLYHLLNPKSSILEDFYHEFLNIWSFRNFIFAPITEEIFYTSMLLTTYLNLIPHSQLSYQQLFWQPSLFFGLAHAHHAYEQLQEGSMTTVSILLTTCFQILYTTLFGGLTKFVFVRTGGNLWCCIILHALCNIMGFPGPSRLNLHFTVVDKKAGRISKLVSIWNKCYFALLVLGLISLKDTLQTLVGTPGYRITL
PABP FP inh: PABP poly(A) RNA binding inhibitors, primary screen, biochemical, fluorescence polarization, uHTS; inhibition, % at 35 µM; hit rate 1% among 290,000;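 active = 50% or more with normal probe brightness, or confirmed in later tests; about a fifth of its hits are not listed in these tables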;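 note: calls also rest on retests at 20 µM and on dose response follow-up; controls were probe without protein and protein plus probe with vehicle; some compounds called inactive have numbers as strong as hits; many hits fall short of the cut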
MT1-MMP act inh RFP: further read-out of MT1-MMP act inh, marked with its call; RFP signal change, %; measured here: RFP expression control read;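 0 = vehicle wells; hits needed this value within 50% of zero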
* = called active by the depositor; i = inactive; nt = not tested or not shown; & = joins results of further samples.

SMILES | Yeast UUG start | MT1-MMP act inh | MT1-MMP act inh RFP | CSC inhib | eIF4H FP inh | HIV Env fusion | Rce1 inhib | PABP FP inh
CCOC(=O)c1ccc(NC(=S)NCc2ccc(S(N)(=O)=O)cc2)cc1 | -14 | -4 | -3 | -9 | -3 | 3 | i | -4
O=C(O)c1ccc(NC2OC[C@@H](O)[C@H](O)[C@H]2O)cc1 (stereo partly drawn) | 6 | 4 | -2 | -10 | nt | -5 | i | nt
Cc1ccc(C23CC4CC(CC(C(=O)OCC(=O)NC5CCS(=O)(=O)C5)(C4)C2)C3)cc1 (stereo not drawn) | nt | -1 | -1 | 5 | -5 | -10 | i | -3
CCOC(=O)c1sc(NC(=O)c2cc(-c3ccc(C)cc3)nc3ccccc23)c(C#N)c1C | -17 | -31 | -30 | 49 | -6 | 17 | i | 7
CCCCCCc1cc2cc(C(=O)Nc3cccc(OC)c3)c(=O)oc2cc1O | -17 | -4 | -25 | nt | 4 | -4 | i | 3
C/C(=N\NC(=S)Nc1ccccc1C)C1Cc2ccccc2C(=O)O1 (stereo not drawn) | -27 | 2 | -5 | -14 | -15 | -15 | i | 4
CCn1c(SCC(=O)c2ccc(NS(=O)(=O)c3ccccc3)cc2)nnc1-c1cccs1 | -10 | 3 | -1 | -5 | -4 | -22 | i | -2
Cn1cc(SCC(=O)Nc2nccs2)c2ccccc21 | -1 | 3 | -1 | -3 | 8 | -66 | i | 0
CCCN1CCC(NC23CC4CC(CC(C4)C2)C3)CC1 | nt | nt | nt | -3 | -4 | nt | i | 21
Cc1ccnc(SCC(=O)c2ccc(Br)s2)n1 | -11 | 2 | 3 | -9 | -2 | 13 | i | 15
CCNc1nc(NCC)n2c(SCc3ccc(F)cc3)nnc2n1 | -13 | 2 | 3 | nt | 6 | nt | i | 10
CCOC(=O)C(=O)/C(=C\N(C)C)c1onc(-c2c(Cl)cccc2Cl)c1C(=O)OC | 6 | -1 | 8 | nt | 0 | nt | i | -1
O=C(NC1CCCC1)C(c1ccncc1)N(CC1CCCO1)C(=O)Cn1nnc(-c2cccs2)n1 (stereo not drawn) | 7 | 1 | 0 | 1 | -4 | -18 | i | -2
O=C(Nc1cccnc1)c1ccc(COc2ccccc2Cl)o1 | -13 | 20 | -4 | 43 | -2 | -168 | i | -4
COc1ccccc1CN(C)c1nnnn1-c1ccccc1 | nt | 3 | 4 | -8 | -4 | -11 | i | -7
CCC(Sc1nccn1C)C(=O)Nc1ccc(Cl)cn1 (stereo not drawn) | -14 | 5 | 3 | 0 | 1 | 13 | i | -4
Nc1cccc2c1C(=O)N(C(=O)c1ccco1)C2=O | nt | 1 | 2 | -1 | 5 | -72 | i | 8
FC(F)(F)c1ccccc1Cc1c(-c2ccc(Cl)cc2)nc2ccc(Cl)cn12 | -4 | -3 | -1 | nt | nt | -147 | nt | nt
CC(=O)c1ccc(NC(=O)CSc2nnc(-c3ccco3)o2)cc1 | -8 | -1 | 1 | nt | 3 | 0 | i | 0
O=C(CSc1nnc(SCc2ccc(Cl)cc2)s1)N/N=C/c1ccc(Cl)cc1Cl | nt | 1 | -1 | -3 | -7 | 42 | i | -3
CCC(C)[C@H](NC(=O)N1CCC(C)CC1)C(=O)O (stereo partly drawn) | nt | 2 | 6 | -6 | -6 | -12 | i | -2
CCC(=O)Nc1cc(C)c(NC(=O)C23CC4CC(CC(C4)C2)C3)cn1 | -4 | 0 | 0 | 7 | 46 | nt | i | 0
COC(=O)/C=C1/SC(=Nc2ccc(C)cc2C)NC1=O | -8 | 2 | 4 | 6 | 0 | nt | i | -1
CCCCN1C[C@H](C)[C@@H](CC(=O)Nc2ccccc2)C1=O | -24 | 2 | 6 | nt | nt | -18 | nt | nt
C=CCc1c(C)nc(N2CCSCC2)[nH]c1=O | nt | 0 | 2 | -7 | 5 | -4 | i | 3

Molecules above that have a Cl atom (five):
SMILES | Yeast UUG start | MT1-MMP act inh | MT1-MMP act inh RFP | CSC inhib | eIF4H FP inh | HIV Env fusion | Rce1 inhib | PABP FP inh
CCOC(=O)C(=O)/C(=C\N(C)C)c1onc(-c2c(Cl)cccc2Cl)c1C(=O)OC | 6 | -1 | 8 | nt | 0 | nt | i | -1
O=C(Nc1cccnc1)c1ccc(COc2ccccc2Cl)o1 | -13 | 20 | -4 | 43 | -2 | -168 | i | -4
CCC(Sc1nccn1C)C(=O)Nc1ccc(Cl)cn1 (stereo not drawn) | -14 | 5 | 3 | 0 | 1 | 13 | i | -4
FC(F)(F)c1ccccc1Cc1c(-c2ccc(Cl)cc2)nc2ccc(Cl)cn12 | -4 | -3 | -1 | nt | nt | -147 | nt | nt
O=C(CSc1nnc(SCc2ccc(Cl)cc2)s1)N/N=C/c1ccc(Cl)cc1Cl | nt | 1 | -1 | -3 | -7 | 42 | i | -3

(next part)
SMILES | Yeast UUG start | MT1-MMP act inh | MT1-MMP act inh RFP | CSC inhib | eIF4H FP inh | HIV Env fusion | Rce1 inhib | PABP FP inh
O=C(NC1CCN(c2ncccn2)CC1)c1cccc(F)c1 | nt | 0 | 0 | -7 | 6 | -5 | i | 0
Nc1nnc(SCc2ccc(Cl)cc2)s1 | nt | 8 | -2 | -1 | -11 | nt | i | 2
CC(=O)c1c(C)oc2ccc(NS(=O)(=O)c3ccccc3)cc12 | 16 | 2 | -8 | 6 | -3 | 20 | i | 4
CC(C)Oc1ccc(S(=O)(=O)N2CCCCC2)cc1NC(=O)C1CSC2(C)CCC(=O)N12 (stereo not drawn) | -7 | 3 | -2 | 3 | nt | nt | i | nt
CC(NC(=O)COC(=O)c1ccc(S(=O)(=O)N2CCOCC2)cc1)c1ccccc1 (stereo not drawn) | -20 | 0 | 4 | -22 | nt | nt | nt | nt
CC(C)(C)S(=O)(=O)/C(C#N)=C/c1sccc1C1OCCO1 | nt | 3 | 1 | 24 | -5 | -74 | i | -4
FCCCOc1ccc(-c2nccc(-c3ccccn3)n2)cc1 | -16 | -1 | -2 | 0 | -3 | -27 | i | -7
O=C(Oc1cccc(-n2cnnn2)c1)c1sc2ccccc2c1Cl | -24 | 1 | 3 | -6 | 3 | 7 | i | -8
COc1ccccc1N1CC(C(=O)OC(C)C(=O)Nc2ccc(F)cc2)CC1=O (stereo not drawn) | -10 | -2 | 2 | nt | nt | 21 | nt | nt
CCOc1ccc(NC(=O)c2sc3nc4n(c(=O)c3c2C)CCC4)cc1 | -6 | 3 | 0 | 1 | 3 | -4 | i | -2
CCOC(=O)c1c(C)c(C(=O)NCCCN2CCCC2=O)c(C)n1CC | nt | -5 | 2 | -6 | 6 | nt | i | 10
Cc1ccc(S(=O)(=O)Oc2ccc(/C=C(/NC(=O)c3ccccc3)C(=O)O)cc2)cc1 | nt | 1 | 3 | 7 | 6 | 14 | i | -4
CCOC(=O)CNC(c1ccccc1)c1cc(Br)ccc1NC(=O)CCN1CCOCC1 (stereo not drawn) | nt | -4 | -2 | 15 | 3 | -1 | nt | -6
O=C(c1cccc(S(=O)(=O)N2CCc3ccccc32)c1)N1CCCC(C(F)(F)F)C1 (stereo not drawn) | nt | 5 | -9 | -4 | nt | 38 | i | nt
CSc1ncnc2c1ncn2CCCNCC(C)c1ccccc1 (stereo not drawn) | -17 | 6 | 7 | nt | nt | 17 | nt | nt
COc1cccc(-c2cc(C(=O)Nc3cnn(Cc4ccc(F)cc4)c3)no2)c1 | -19 | 5 | -2 | 10 | 8 | -116 | i | 6
COc1ccc(C(=O)CNc2ccc(C)cc2C)cc1 | nt | -2 | 1 | -8 | 1 | 0 | i | 3
CC(C)(CO)CNC1CCCN(C2Cc3ccccc3C2)C1 (stereo not drawn) | -11 | 0 | 0 | -11 | -2 | -10 | i | -2
CCC1CCCCN1Cc1nc2c(c(=O)n(C)c(=O)n2C)n1Cc1ccccc1 (stereo not drawn) | -11 | 0 | 1 | nt | -5 | -4 | i | -2
Cc1[nH]c2ccccc2c1NC(=O)CN1CCN(C(=O)c2ccco2)CC1 | 13 | -1 | 4 | -6 | -1 | 14 | i | 12
Cc1ccc(C)c(C(=O)CCC(=O)Nc2ccc(N3CCN(C)CC3)cc2C)c1 | 3 | -3 | 0 | 6 | nt | nt | nt | nt
NC(=O)CSc1c[nH]c2ccccc12 | -20 | -4 | 3 | -1 | 2 | -37 | i | 2
COc1cc(C2N=C(c3ccccc3)NO2)cc(Br)c1O (stereo not drawn) | -2 | 9 | 2 | 2 | 2 | nt | i | -4
COc1ccc(-c2cc(CNC(C)=O)on2)cc1 | -11 | 0 | 5 | -1 | -6 | nt | i | -11
O=C(Cn1cnc2sc3c(c2c1=O)CCCC3)NCC(=O)Nc1ccc(F)cc1F | -6 | -1 | -2 | 7 | -4 | 3 | i | 3

Next part.
SMILES | Yeast UUG start | MT1-MMP act inh | MT1-MMP act inh RFP | CSC inhib | eIF4H FP inh | HIV Env fusion | Rce1 inhib | PABP FP inh
CCS(=O)(=O)c1nc(S(=O)(=O)c2ccc(C)cc2)c(NCCCN2CCCC2=O)s1 | -6 | 0 | 5 | -10 | 1 | 2 | i | 6
C[C@H](CO)N1C[C@H](C)[C@@H](CN(C)S(=O)(=O)c2cccc(F)c2)OCc2cn(nn2)CCCC1=O | 3&4 | 3 | 6 | nt | nt | -36 | nt | nt
CCn1ncc(CN2CCN(Cc3cccc(OC)c3)C(CCO)C2)c1C (stereo not drawn) | nt | 1 | -1 | 25 | -2 | 12 | i | 0
COCCCNC(=O)CN(CCc1ccccc1)S(=O)(=O)c1ccc(C)cc1 | -12 | -2 | -1 | -9 | 10 | 7 | i | 1
CSCC[C@@H](C(=O)Nc1ccc2c(c1)OCCO2)N1Cc2ccccc2C1=O | -23 | 1 | 0 | 3 | 8 | -20 | i | -1
O=C1C=C(c2ccc(F)nc2)CCC1 | -8 | 2 | 0 | -25 | nt | -38 | i | nt
O=C(O)c1cc(N2C(=O)C3CC=CCC3C2=O)ccc1NCc1cccnc1 (stereo not drawn) | -25 | 0 | 1 | -6 | -10 | 9 | i | 20
COC(=O)/C(=C/c1c[nH]c2ccccc12)[N+](=O)[O-] | -2 | -5 | 6 | 14 | 2 | 5 | i | 9
CN1CCC(NC(=O)c2cccc(Oc3ccccc3)c2)CC1 | -12 | 1 | 3 | 44 | 0 | -8 | i | -13
CCCn1c(C(O)c2cc(OC)c(OC)c(OC)c2)nc2ccccc21 (stereo not drawn) | -20 | 1 | 0 | 21 | 5 | -1 | i | -5
Cc1ccc(CSc2nnc(-c3cccc(S(=O)(=O)N4CCOCC4)c3)n2CC(C)C)cc1 | nt | -3 | -12 | 10 | 4 | 24 | i | 3
CCOc1ccc(NC(=O)CCC(=O)Nc2nnc(CC)s2)cc1 | -19 | 5 | 4 | -2 | -2 | -1 | i | 3
Cc1ccc(SCC(=O)c2c(C)nc3cc(C)ccn23)cc1 | -26 | 4 | -3 | 5 | -2 | 3 | i | -9
CN(C)S(=O)(=O)N1CCN(C(=O)c2ccccc2Cl)CC1 | 9 | -1 | 0 | -2 | 2 | nt | i | 9
C=CCc1cccc(/C=N/c2nc3ccccc3n2CC)c1O | nt | 1 | 6 | -8 | 0 | nt | i | 1
COc1ccc(-c2nn(-c3ccccc3)cc2C#N)cc1 | -11 | 2 | 0 | 0 | 3 | nt | i | -5
CN(C)Cc1nc2c([nH]1)c(=O)n(C)c(=O)n2C | -9 | 1 | 5 | 4 | 4 | -10 | i | -8
Cc1cccc(N2CC(C(=O)Nc3ccccc3N3CCOCC3)CC2=O)c1C (stereo not drawn) | 2 | 0 | 3 | 8 | nt | -26 | nt | nt
CCCCC(=O)N/N=C/c1cc([N+](=O)[O-])ccc1N1CCOCC1 | -10 | 2 | 4 | -1 | -1 | nt | i | 31
